Screening results (PubChem)
SARS PLP yeast: qHTS of Yeast-based Assay for SARS-CoV PLP; AID 485353, 2010; Potency, µM (series often up to 32.9 µM), without a hit: at the highest dose activity, positive = growth rescue; S. cerevisiae expressing SARS-CoV PLpro, growth rescue; control for the full effect not named in the record; 330,000 tested, 0.19% active; active means well fitted rising curve with a large enough effect; inconclusive means small, poorly fitted or top-dose-only effect; inactive means no such curve, though single readings can be large or run the other way; also: 0% is about no effect; nearly all actives have a fitted effect of over 55% in size; growth read by luminescence after 48 h
LASV entry inh: qHTS for Inhibitors of binding or entry into cells for Lassa Virus; 300,000 tested, 1.2% active; AID 540256, 2011; Lassa virus pseudotype entry inhibition, cell reporter; control for the full effect not named in the record; Potency, µM (highest dose often 37.9 µM), for inactives: at the highest dose activity change, negative = inhibition, actives largely listed as inhibitors; active means well fitted inhibition curve with a large enough effect; inconclusive means small, poorly fitted or top-dose-only effect, or effect the other way; inactive means flat fitted curve, though single readings scatter; tested in HEK293 cells; also: % is scaled to controls: 0 for no effect and ±100 for the full control effect; nearly all actives have a fitted effect of over 50% in size; luciferase read-out
2A StopGo: High Throughput Screening for Foot and Mouth Disease Virus Antivirals | 410,000 tested, 1.2% active | human cells with a luciferase reporter of 2A StopGo recoding; control for the full effect not named in the record | Potency, µM (doses to about 57.9 µM), inactives show top-dose signal change, negative = less light | AID 1159524, 2015; active = well fitted falling curve with a large enough effect; inconclusive = small, poorly fitted or top-dose-only effect; inactive = no such curve, though single readings can be large or run the other way; tested in HEK293T cells; also: % is scaled to controls: 0 for no effect and ±100 for the full control effect; nearly all actives have a fitted effect of over 45% in size; luciferase light after 4 h
RE007 growth inh: qHTS Assay for Inhibitors of the HIV-1 protein Vpr | S. pombe RE007 Vpr strain, BacTiter-Glo ATP luminescence, 24 h; control for the full effect not named in the record | Potency, µM (highest dose often 92.2 µM), for inactives: at the top dose activity change, negative = less growth | 360,000 tested, 0.21% active | AID 651644, 2012; active = well fitted falling curve with a large enough effect; inconclusive = small, poorly fitted or top-dose-only effect; inactive = no such curve, though single readings can be large or run the other way;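 also: % is scaled to controls: 0 for no effect and ±100 for the full control effect; nearly all actives have a fitted effect of over 50% in size; the assay follows cell death caused by Vpr and the record does not say whether a fall means rescue or toxicity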
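Fission yeast RE007 carrying one integrated HIV-1 vpr copy, seeded at OD 0.01 in PMG+AL medium with 23 nL pinned compound. Grown 24 h at 30 degrees; viability read by BacTiter-Glo luminescence after 5 min.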
Cruzain inh Det: qHTS Assay for Promiscuous and Specific Inhibitors of Cruzain (with detergent); Potency, µM, for the others: max response, negative = inhibition, most hits filed as inhibitors; purified cruzain, Z-FR-AMC fluorescence, 0.01% Triton; 200,000 tested, 0.43% active;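 also: plate controls were neutral wells for no effect and buffer without enzyme for full effect; nearly all actives have a fitted effect of over 40% in size; top concentration of the series not given in the record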
Target sequence (P25779 123-467 limits assumed): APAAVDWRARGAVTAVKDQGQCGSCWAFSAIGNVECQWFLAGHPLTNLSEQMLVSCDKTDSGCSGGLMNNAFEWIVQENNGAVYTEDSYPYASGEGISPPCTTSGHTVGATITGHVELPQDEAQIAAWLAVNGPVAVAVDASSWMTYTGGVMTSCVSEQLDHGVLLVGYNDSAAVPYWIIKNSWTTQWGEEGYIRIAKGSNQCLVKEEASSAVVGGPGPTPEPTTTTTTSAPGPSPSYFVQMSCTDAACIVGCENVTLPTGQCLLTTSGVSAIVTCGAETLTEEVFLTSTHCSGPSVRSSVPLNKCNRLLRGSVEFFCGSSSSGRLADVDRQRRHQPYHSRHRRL
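Compounds were screened in titration against cruzain (1.5 nM) with 0.01% Triton X-100 to counter colloidal aggregation. Activity was the AMC fluorescence increase over 60 s after adding 2 uM Z-FR-AMC at pH 5.5.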
NS1 function inh: qHTS Assay for Inhibitors of Influenza NS1 Protein Function. S. cerevisiae slowed by influenza A NS1, growth recovery by OD600. Potency, µM (titrated, usually from 46.1 µM), inactives show at the top dose activity, positive = more growth. 270,000 tested, 0.4% active; active means well fitted rising curve with a large enough effect; inconclusive means small, poorly fitted or top-dose-only effect; inactive means no such curve, though single readings can be large or run the other way; also: nearly all actives have a fitted effect of over 50% in size
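Compounds were scored for reversing the slow growth caused by influenza A NS1 in S. cerevisiae, measured by optical density at 600 nm. Assay medium contained 2% galactose at pH 6.0; NS1-free yeast of the same strain were the positive control.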
Cruzain inh noDet: qHTS Assay for Promiscuous and Specific Inhibitors of Cruzain (without detergent); 200,000 tested, 2.3% active; Potency, µM, inactives show max response, negative = inhibition, actives largely listed as inhibitors; purified cruzain, Z-FR-AMC fluorescence, no detergent; AID 1476, 2009;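 also: plate controls were enzyme without inhibitor for no effect and buffer without enzyme for full effect; nearly all actives have a fitted effect of over 40% in size; top concentration of the series not given in the record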
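Purified cruzain at 1.5 nM, pre-incubated 15 min with compound at room temperature in 100 mM sodium acetate pH 5.5, 5 mM DTT, 0.00005% Triton X-100. Reaction started with 2 uM Z-FR-AMC; AMC fluorescence increase over 60 s gives rate.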
MARV entry inh: qHTS for inhibitors of binding or entry into cells for Marburg Virus. Potency, µM (top dose mostly 37.8 µM), without a hit: top-dose activity change, negative = inhibition, hits mostly inhibitors. Marburg virus pseudotyped entry inhibition, cell reporter; control for the full effect not named in the record; about a third of the inactives were read at about 46 µM. AID 540276, 2011. 300,000 tested, 1.8% active; active = well fitted inhibition curve with a large enough effect; inconclusive = small, poorly fitted or top-dose-only effect, or effect the other way; inactive = flat fitted curve, though single readings scatter; tested in HEK293 cells; about a fifth of its hits are not listed in these tables; also: % is scaled to controls: 0 for no effect and ±100 for the full control effect; luciferase read-out
The depositor's hits bear a star; ? = inconclusive; . = no result given; & = joins results of further samples; [ ] = dose if it differs, or a comment. Unless noted, calls follow the shape of the dose curve; as a rule, active = well fitted curve in the direction sought with a large enough effect; inconclusive = small, poorly fitted or top-dose-only effect, or another doubt; inactive = no such curve, though single readings can be large; an effect the other way counts as inactive or inconclusive. Potency is read from the fitted curve at half-maximal effect.

Structure	SARS PLP yeast	LASV entry inh	2A StopGo	RE007 growth inh	Cruzain inh Det	NS1 function inh	Cruzain inh noDet	MARV entry inh
Cc1cc(-c2ccc(S(=O)(=O)Nc3cccc(Cl)c3C)cc2)on1	.	-5.4%[46.1 µM]	2.6%	.	-9.0%	.	-11.8%	.
NC(=O)C1(N2CCCCC2)CCN(S(=O)(=O)c2ccc(Cl)s2)CC1	2.0%	-3.6%[46.1 µM]	-18.4%	1.2%	.	3.9%	.	1.9%[46.1 µM]
CC(Oc1ccc(Cl)cc1)C(=O)Nc1ncccn1 (stereo unspecified)	-4.9%	7.5%	.	-12.3%	0.6%	-11.0%	-1.9%	15.9%
CC(=O)Nc1ccc(S(=O)(=O)N2CCC(NC(C)=O)(c3cccc(F)c3)CC2)cc1	1.5%	2.2%	-12.7%	1.2%	-0.6%	5.2%	9.1%	-3.2%&8.3%
Cc1cccc(OCc2ccc(C(=O)Nc3ccc(F)cc3)cc2)c1	12.4%	-9.0%	-25.8%	.	3.9%	-0.4%	?	17.7%
COc1cc(Cl)c(C)cc1NC(=O)Cn1c(NCCO)nc2ccccc21	-0.1%	-1.7%	-6.9%	26.2%	.	3.6%	.	2.7%[46.1 µM]
Oc1ccc(-c2n[nH]c(=S)n2-c2ccc3c(c2)OCCO3)c(O)c1	-9.5%	?	2µM*	.	-8.7%	?	-10.4%	?
COc1ccc(NC(=O)c2ccc3c(=O)n(-c4ccc(OC)cc4OC)c(=S)[nH]c3c2)c(OC)c1	1.5%	-8.7%	?	-6.2%	.	.	.	-24.5%
FC(F)(F)c1ccc(Oc2ccc3c(C(F)(F)F)cc(C(F)(F)F)nc3n2)cc1	-0.6%	-8.1%	18.0%	9.5%	-5.6%	8.9%	0.9%	?
COc1cc(/C=N/NC(=O)c2ccncc2)ccc1OC(=O)c1ccccc1Cl	-0.5%	.	?	0.9%	.	4.0%	.	.
CC1CCCN(C(=O)COC(=O)COc2ccc(Cl)cc2)C1 (stereo unspecified)	-15.6%	21.9%	-17.0%	-23.6%	.	.	.	1.3%
Cc1cc(-n2cccn2)ccc1CN1CCN(C2CCCC2)C(CCO)C1 (stereo unspecified)	0.3%	-15.2%[46.1 µM]	2.7%	-4.7%	.	0.2%	.	-5.0%[46.1 µM]
Fc1ccc(CN2C3=NCCCN3c3ccccc32)cc1	-27.0%	-8.8%	?	-6.5%	-1.5%	8.3%	1.0%	?
Cc1ccc(OCCc2csc(N)n2)cc1	-0.6%	?	23.0%	-10.6%	.	.	.	-12.2%[46.1 µM]
O=C(COC(=O)c1cccs1)NCCC1=CCCCC1	25.5%	6.2%	12.3%	5.4%	6.3%	-2.0%	-2.7%	6.6%[46.1 µM]
Cc1ccc(Cn2nnnc2CN2CCC(O)(c3ccc(F)cc3)CC2)cc1	-4.3%	-24.3%	.	-1.6%	0.4%	-15.9%	?	-2.1%
O=[N+]([O-])c1ccc(N2CCN(S(=O)(=O)c3ccccc3)CC2)cc1NCc1ccco1	21.7%	.	.	.	2.1%	8.5%	?	-1.2%
COc1ccc(C)cc1NS(=O)(=O)c1ccc2c(c1)N(C)CCO2	-4.5%	-11.9%[46.1 µM]	19.6%	0.7%	.	-12.6%	.	0.1%[46.1 µM]
COc1ccc(CCNS(=O)(=O)c2cc(-c3onc(C)c3C)ccc2OC)cc1OC	.	-10.2%[46.1 µM]	30.2%[activator]	.	0.2%	.	?	.
CCOc1ccc(CSCCNC(=S)Nc2ccc(OC)cc2)cc1	-0.1%	.	13.0%	-6.2%	.	0.4%	.	.
CCCC(=O)Nc1nnc(S(=O)(=O)N(CC)c2ccc(OC)cc2)s1	0.5%	-25.1%	5.8%	-1.8%	.	5.4%	.	-2.0%
CC1(C)CC2CC(C)(CN2C(=O)c2cc(-c3ccc(O)cc3)on2)C1 (stereo unspecified)	-10.0%	?	33.7%[activator]	?	.	-22.6%	.	?
Oc1ccc(-n2cnnn2)cc1	10.1%	9.6%	-18.2%	0.2%	3.5%	5.4%	-7.8%	-1.3%
COc1cc2c(cc1OC)C(C(=O)N1CCC3(CC1)OCCO3)C(c1ccccc1F)N(C)C2=O (stereo unspecified)	2.3%	-13.1%	0.0%	-24.7%	-0.5%	-2.8%	4.4%	2.3%&2.3%
CCCNc1nc(Cl)nc(Nc2ccc(Cl)cc2)n1	1.6%	?	10.0%	5.5%	.	-44.5%	.	?
COc1ccc(C(=O)NNC(=O)C(=O)Nc2ccc(C)cc2)cc1	1.3%	2.6%	-11.4%	?	.	-12.3%	.	6.7%[46.1 µM]
CCc1nnc(NC(=O)CSc2nc3c(cc2C#N)CCC3)s1	0.4%	-17.2%	67.2%[activator]	-10.3%	9.0%	4.0%	-22.7%	?
CCN(CC)S(=O)(=O)c1cc(C(=O)O)ccc1Cl	5.0%	13.5%	-0.9%	10.3%	7.9%	?	2.2%	0.0%
O=c1[nH]c(=O)n(Cc2ccco2)c(O)c1C=NC1CCN(Cc2ccccc2)CC1	-4.2%	3.3%[46.1 µM]	4.5%	8.8%	.	4.6%	.	?
Cc1cccc(C2c3[nH]c4ccccc4c3CCN2C(=O)c2cc(-c3cccn3C)n[nH]2)n1 (stereo unspecified)	-0.2%	?	?	1.5%	.	14.8%	.	?
CCCOc1ccc(N2C(=O)CC(N(CCc3ccc(OC)cc3)C(=O)/C=C/C(=O)O)C2=O)cc1 (stereo unspecified)	-4.6%	-7.8%	-9.2%	-4.6%	.	3.4%	.	?
COc1ccc(CNC(=O)CCSCc2cccc(F)c2)cc1	0.0%	27.4%	11.9%	3.3%	.	-6.5%	.	?
O=C(CC1C(=O)NCCN1Cc1cccc(C(F)(F)F)c1)NC1CCCCCC1 (stereo unspecified)	0.9%	-0.7%	-13.3%	3.2%	.	10.3%	.	-8.2%
COC(=O)c1sccc1S(=O)(=O)N1CCN(c2cccc(C)c2C)CC1	.	?	-23.5%	.	-7.6%	.	-1.1%	.
CCn1c(CSc2nc3ccccc3s2)nnc1SCC(=O)c1ccc(Cl)cc1	18.6%	?	0.0%	-14.0%	-0.8%	13.3%	-14.3%	?
O=C(/C=C/c1ccccc1Cl)NCCN1CCOCC1	2.4%	29.5%	.	1.2%	-1.6%	-2.2%	-4.3%	2.4%
COc1ccc(C)cc1NC(=O)C1CCCN(S(=O)(=O)c2cccc3nonc23)C1 (stereo unspecified)	-3.5%	-11.7%&-14.5%	-13.8%	2.8%	-1.1%	-3.8%	5.2%	6.1%&3.7%
CCn1cc([C@@H]2C[C@H]3CN(Cc4cccc(Cl)c4)C(=O)[C@]34CCCN24)c(C)n1	-0.4%	1.6%[46.1 µM]	-2.8%	0.7%	.	-3.2%	.	-9.9%
CCCC(c1nnnn1Cc1cccs1)N1CCN(c2nc3ccccc3s2)CC1 (stereo unspecified)	4.3%	?	?	2.3%	-1.5%	-18.3%	-1.1%	?
COc1ccc(C(CNC(=O)c2oc3cc(Br)ccc3c2C)N2CCCCC2)cc1 (stereo unspecified)	0.5%	15.1%[46.1 µM]	?	13.4%	2.1%	-10.9%	17.3%	6.6%&6.6%[46.1 µM]
O=C(N/N=C/c1ccc(O)c(O)c1)c1cccc(S(=O)(=O)N2CCCCC2)c1	8.4%	6.7%	-12.4%	5.8%	.	.	.	5.1%
CC1=[N+]([O-])C(C)(C)C(C)N(O)C1=O (stereo unspecified)	-4.5%	0.0%	-14.4%	-7.9%	1.9%	8.0%	-16.2%	-0.7%
CCC1(C(=O)OC)NC(c2ccco2)C2C(=O)N(c3ccccc3)C(=O)C21 (stereo unspecified)	7.0%	1.3%	11.9%	6.5%	1.9%	8.9%	-13.5%	-20.1%[46.1 µM]
COc1cc(-c2csc(C)n2)ccc1O	-4.4%	5.8%	12.5%	-7.4%	4.1%	-9.5%	-4.4%	-0.1%
CCNC(=S)Nc1cccc(F)c1C	0.4%	4.4%	-4.7%	0.1%	.	8.4%	.	?
O=[N+]([O-])c1cccc(/C=N/N2CCN(c3ccccn3)CC2)c1	-13.3%	13.3%	0.0%	9.5%	-12.6%	5.3%	0.2%	-21.2%
NS(=O)(=O)c1ccc(N=Nc2c(O)ccc3ccccc23)cc1	4.8%	0.3%	24.3%	0.0%	.	8.6%	.	-5.6%
COc1cccc(/C=N/NC(=O)c2ccc(=O)n(C)c2)c1OC	16.6%	10.3%	6.7%	29.0%	1.7%	3.1%	-5.7%	4.4%
Cc1nc2sc3c(c2c(=O)n1N)CCC3	-1.6%	?	6.1%	-9.0%	.	.	.	12.8%[46.1 µM]
Cc1ccccc1NC(=O)CSC1=C(C#N)C(c2ccsc2)CC(=O)N1 (stereo unspecified)	1.5%	-14.9%	-24.3%	15.5%	-1.1%	-6.7%	-5.0%	?
O=C(c1ccccc1)N1CCc2ccccc21	-2.4%	3.9%	-4.3%	0.0%	5.0%	?	6.4%	13.1%
COc1cccc(/C=C(/C(=O)OCC(N)=O)c2ccccc2)c1	-6.7%	.	-19.4%	-2.3%	.	.	.	-9.3%[46.1 µM]
CCOC(=O)c1csc(NC(=O)CSc2nnnn2CC)n1	8.0%	9.8%	-15.8%	17.5%	1.3%	1.3%	7.1%	-0.6%[46.1 µM]
COc1ccccc1CNC(=O)CSc1ncc2c(n1)-c1cc(Cl)ccc1N(Cc1ccccc1)S2(=O)=O	.	-3.3%[46.1 µM]	-20.4%	.	1.5%	.	-26.5%	.
NC1=NC(=O)/C(=C\c2ccco2)S1	0.8%	10.9%	35.7%	-22.2%	.	-76.5%	.	1.1%[46.1 µM]
